MLL AF4-AF9 inh: inhibitors of human MLL-AF4/AF9 interaction; hit rate 0.47% among 350,000; P42568; inhibition, % at 10 µM; AlphaScreen, biotin-AF4 peptide binding to FLAG-AF9;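 active = every replicate reaching a set inhibition limit, whatever the replicate mean, cut at about 25% in these data; inconclusive = mean inhibition reaches that limit but some replicates miss it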;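 also: 0% = plate neutral control median and 100% = total signal loss; the record names both 10 and 1 µM as test concentration; the first replicate is given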
Target sequence (P42568 whole entry, looked up): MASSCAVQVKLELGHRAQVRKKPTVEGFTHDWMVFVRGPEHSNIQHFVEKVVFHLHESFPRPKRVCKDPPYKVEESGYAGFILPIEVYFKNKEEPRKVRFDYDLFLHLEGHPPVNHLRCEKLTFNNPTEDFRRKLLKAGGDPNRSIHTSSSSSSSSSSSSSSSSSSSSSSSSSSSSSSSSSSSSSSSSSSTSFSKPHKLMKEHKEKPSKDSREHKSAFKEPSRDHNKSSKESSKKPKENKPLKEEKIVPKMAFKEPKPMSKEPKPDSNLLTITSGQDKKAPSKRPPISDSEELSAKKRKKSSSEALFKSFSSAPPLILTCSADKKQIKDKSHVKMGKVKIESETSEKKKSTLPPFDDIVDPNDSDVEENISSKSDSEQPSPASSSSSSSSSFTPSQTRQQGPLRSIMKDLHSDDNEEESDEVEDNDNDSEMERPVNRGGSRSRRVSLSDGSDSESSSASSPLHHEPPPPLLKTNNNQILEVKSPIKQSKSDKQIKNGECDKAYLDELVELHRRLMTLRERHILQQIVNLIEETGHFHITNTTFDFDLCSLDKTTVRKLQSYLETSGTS
ALR inh: inhibitors of human sulfhydryl oxidase ALR | inhibition, % (test concentration not listed) | hit rate 3.8% among 290,000 | purified ALR, DTT oxidation, H2O2 HRP-luminol luminescence;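 active = mean and each replicate at 75% or more; inconclusive = only one of the two met; inactive = neither met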;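 also: stock transfer was 7.5 nL into about 7.5 µL; 0% = neutral wells and 100% = wells with inactivated enzyme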
Target sequence (P55789 whole entry, looked up): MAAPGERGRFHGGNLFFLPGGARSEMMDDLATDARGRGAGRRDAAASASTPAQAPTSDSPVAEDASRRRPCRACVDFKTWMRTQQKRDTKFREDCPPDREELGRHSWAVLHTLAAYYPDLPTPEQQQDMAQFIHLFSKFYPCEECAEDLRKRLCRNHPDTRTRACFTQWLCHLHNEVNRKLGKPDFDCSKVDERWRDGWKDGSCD
Calb FLC: affects C. albicans growth with fluconazole. C. albicans CaCi-2 (fluconazole-resistant clinical isolate) + fluconazole, Alamar Blue growth, 48 h. growth inhibition, % (concentration not given with the values). hit rate 0.57% among 300,000. AID 1979;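 active = most replicates above 75%; inconclusive = exactly half above 75%; inactive = most below 75%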;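 also: all wells also contain fluconazole at 8 µg/ml as a sub-toxic cotreatment; 0% = median of DMSO wells and 100% = median of geldanamycin control wells; wells of about 8 µL received 7.5 nL stock; the first replicate is given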
Beta apoptosis: beta cell apoptosis inhibition | INS-1E cytokine-induced death, ATP luminescence, 48 h; percent of positive-control rescue, neutral wells zero | protection from apoptosis, % (test concentration not listed) | hit rate 0.8% among 300,000 | AID 435005;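 active = all replicates at 75% or more, or half of them and the mean; inconclusive = half reach 75% but not the mean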;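 also: 0% = cytokine-treated negative control wells and 100% = positive control rescue; higher means more ATP so stronger rescue from cytokine killing; wells of about 40 µL received 100 nL stock; the first replicate is given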
FGF22 binding: FGF22 (human) thermal shift binding; Q9HCT0; recombinant FGF22 thermal shift, SYPRO orange fluorescence; percent of sucrose octasulfate shift, DMSO zero; calls only at 9.99 µM; hit rate 1.5% among 340,000;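 active = melting point raised past a set limit in the mean and every replicate; inconclusive = no clear call; three in four hits are not shown here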
Target sequence (Q9HCT0 whole entry, looked up): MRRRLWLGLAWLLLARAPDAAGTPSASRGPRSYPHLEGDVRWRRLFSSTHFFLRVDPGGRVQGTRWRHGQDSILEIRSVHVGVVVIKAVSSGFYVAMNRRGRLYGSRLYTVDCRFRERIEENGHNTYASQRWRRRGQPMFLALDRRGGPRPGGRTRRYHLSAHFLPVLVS
rRNA inh HTS: inhibitors of bacterial rRNA selective over humanized ribosomes; GFP signal change (wild-type ribosome), % (test concentration not listed); AID 720706; hit rate 1.6% among 350,000; E. coli WT GFP vs humanized-ribosome RFP mutants, fluorescence, 24 h; active compounds read low; DMSO median 0, no signal -100;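 active = significant combined selectivity score with lowered wild-type GFP, culture density cut under 30%, mutant RFP and density less affected; inactive = any of these conditions unmet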; also: one replicate is shown; some compounds called inactive have numbers as strong as hits
RanGTP-Impb inh: disruptors of Ran-importin-beta complex formation – biochemical, FRET, CFP-Ran, YFP-importin-beta, homogeneous, primary screen; cell-free CFP-Ran/YFP-importin-beta FRET ratio; inhibition, % (concentration not given with the values); hit rate 1.1% among 300,000;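 active = most replicates above 15%; inconclusive = exactly half above 15%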;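 also: 0% = DMSO wells and 100% = Ran loaded with GDP instead of GTP; wells of about 40 µL received 100 nL stock; the first replicate is given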
T cruzi repl: blocks replication of Trypanosoma cruzi. T. cruzi beta-gal in NIH3T3, luminescence, 90 h. inhibition, % (no concentration beside the values). hit rate 1.4% among 300,000. AID 1885;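 active = mean inhibition across valid replicates above about 55%, limit read from the data; inconclusive = mean below that limit but half or more replicates reach it; inactive = mean below it, under half of replicates reach it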;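 also: signal also drops with host cell toxicity which is not excluded here; 0% = plate median of DMSO wells and 100% = zero luminescence signal; higher percent means less beta-gal luminescence so fewer parasites; stock transfer was 50 nL into about 50 µL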
rRNA inh HTS OD600: also measured in rRNA inh HTS; calls as there; OD600 change, %; measured here: OD600 growth;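 optical density of the mix in the first replicate; 0 = DMSO median and -100 = no signal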
rRNA inh HTS RFP: recorded beside rRNA inh HTS, whose call it bears; RFP signal change, %; measured here: RFP humanized mutant strains;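 first replicate; 0 = DMSO median and -100 = no signal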
Starred values were filed as active, the others as inactive; i = inactive; ? = inconclusive; nt = not tested or not shown; & = joins results of further samples. Only part of the results is shown (hit frequency here may not be typical).

SMILES	MLL AF4-AF9 inh	ALR inh	Calb FLC	Beta apoptosis	FGF22 binding	rRNA inh HTS	rRNA inh HTS OD600	rRNA inh HTS RFP	RanGTP-Impb inh	T cruzi repl
COCCNC(=O)CSc1ccccc1C(=O)NC1CCSc2ccccc21 (centres undefined)	3.4	-7	0	nt	i	nt	nt	nt	4.3	31
O=C(COC(=O)C1CC2C=CC1C2)NCc1ccc(F)cc1 (centres undefined)	nt	4	-23	1	nt	nt	nt	nt	-0.8	-8
O=C1C(Cl)=C(N2CCCCCC2)C(=O)N1c1ccc(Cl)cc1	4.2	-1	-6	4	i	-19	-17	-0.1	-3.2	2
COc1ccc(NC(=O)c2sc(SC)nc2N)cc1	2.6	-5	-4	nt	i	-6	2	-12	-0.3	-9
S=c1[nH]nc(-c2ccco2)n1/N=C/C=C/c1ccccc1	nt	98*	-4	-8	nt	nt	nt	nt	-6.9	-11
CCOc1ccc(-n2c(C)c(C(C)=O)c3cc(OC(C)=O)ccc32)cc1	-4.1	-2	8	-4	i	28	26	1.6	1.0	7
O=C(COc1ccccc1)Nc1ccccc1Cl	-3.2	-15	4	-6	i	13	11	0.0	-3.5	6
CC(C)c1ccccc1NC(=O)COC(=O)C1(C)CC1(Cl)Cl (centres undefined)	-0.3	3	-10	3	i	-19	-28	-5.6	-2.9	-1
COc1ccc(CNC(=O)CCN2C(=O)c3ccccc3S2(=O)=O)cc1	-1.1	-5	-3	-1	i	1	2	-1.6	1.5	-7
O=C(O)CCSc1ccc2ccccc2n1	nt	-23&7	2&9	-9&-1	nt	8	10	2.0	-1.5&-3.8	-18&-1
COc1cc(C(F)(F)F)nc2ccc(C#CCOC(=O)Nc3ccccc3)cc12	-1.2	-1	-6	-4	i	7	-9	1.0	4.0	15
O=C(COc1ccc(F)cc1)N1c2ccccc2CCc2ccccc21	-2.4	-21	21	-11	nt	-10	2	-2.7	-3.2	5
C#Cc1cccc(NC(=O)Cc2cccs2)c1	-1.7	nt	-4	-2	i	9	8	-0.5	-0.8	-4
CCOC(=O)c1ccc(NC(=O)NC2CC3CCC(C2)N3C(=S)NC)cc1 (centres undefined)	-1.1	-5	11	-4	i	3	7	0.8	-3.1	-6
COc1ccc(CN2CC(C(=O)N3CC(C)CC(C)C3)CC2=O)cc1 (centres undefined)	1.3	-16	-24	-1	i	0	14	-0.1	-3.0	2
COc1ccc(C(=O)N2CCCC(c3nc(-c4cc(OC)c(OC)c(OC)c4)no3)C2)cc1 (centres undefined)	0.3	0	25	7	i	-28	-17	17	-0.6	14
CCC(=O)NNc1nc2c(C)cc(C)cc2s1	-9.0	1	-18	1	i	6	14	1.5	-0.2	-17
COc1cccc(C(=O)Nc2ccccc2C(=O)NC2CC2)c1	-9.9	-4	20	-4	i	-18	-24	-1.8	1.2	6
CC1CCN(C2=C(NS(=O)(=O)c3ccc(Br)cc3)C(=O)c3ccccc3C2=O)CC1	50*	-9	nt	17	i	-3	-8	2.0	2.0	35
COc1ccc(CCNC(=O)c2ccc3nc[nH]c3c2)cc1	0.2	-16	-21	1	i	-6	-2	2.6	3.6	-16
CCOC(=O)C1CCCN(C(=O)c2cc3nc(-c4cccc(OC)c4)cc(C(F)(F)F)n3n2)C1 (centres undefined)	nt	-6	14	-15	nt	nt	nt	nt	4.6	1
Cc1ncc(CO)c(/C=N/NC(=O)c2cccc(S(=O)(=O)N3CCCC3)c2)c1O	-0.3	32	2	3	i	10	19	3.8	38*	-9
CCCCCC(C)NC(=S)NC(=O)c1cc(S(=O)(=O)N2CCOCC2)ccc1C (centres undefined)	nt	16	28	14	nt	nt	nt	nt	-3.4	15
CCc1ccc(S(=O)(=O)Nc2ccc(Cl)cn2)cc1	-4.9	30	49	-10	i	13	4	0.9	0.9	7
O=C(/C=C/c1ccc(S(=O)(=O)N2CCOCC2)cc1)Nc1ccc(F)c(F)c1F	0.5	0	nt	14	i	nt	nt	nt	nt	nt

Remaining list, next part
SMILES	MLL AF4-AF9 inh	ALR inh	Calb FLC	Beta apoptosis	FGF22 binding	rRNA inh HTS	rRNA inh HTS OD600	rRNA inh HTS RFP	RanGTP-Impb inh	T cruzi repl
Fc1cccc(Cl)c1Cn1ncc2ccccc21	-0.9	-3	7	-9	i	-6	-11	1.2	-1.0	2
O=C(N/N=C/c1ccccc1Cl)c1[nH]c2ccc(Br)cc2c1-c1ccccc1	-0.8	-11	?	68	i	nt	nt	nt	-2.6	42
COc1ccc2c3c(cccc13)C(=O)N(O)C2=O	-62	nt	-9	0	i	-17	-46	7.8	7.1	-70
O=C(c1ccc(-c2ccccc2)cc1)N1CCN(c2ccccc2F)CC1	-4.5	nt	13	0	i	-23	-23	-2.2	-0.8	7
CN(C)c1ccc(C2N(c3ccc(Cl)cc3)C(=O)C3CCCN32)cc1 (centres undefined)	0.3	64	-12	0	i	16	8	1.1	2.8	3
Cc1cc(C)c2c(-n3cccc3)c(C(=O)NNS(=O)(=O)c3ccc(F)cc3)sc2n1	nt	66	14	-3	nt	nt	nt	nt	-3.5	0
O=C(N/N=C/c1ccc(N2CCOCC2)s1)c1ccc(NS(=O)(=O)c2cccs2)cc1	-0.1	70	-3	2	i	-3	-3	3.8	?	4
CCOC(=O)C1CCCN(C(=O)C2CCN(S(=O)(=O)CC)CC2)C1 (centres undefined)	nt	2	-20	1	nt	nt	nt	nt	-0.3	8
CS(=O)(=O)N1CCC(Oc2ccccc2C(=O)NCCCc2cccnc2)CC1	-2.3	-14	-18	-3	i	10	5	9.3	-0.7	11
CC1(C(=O)NC(=S)N(CCC#N)Cc2cccnc2)CC1(Cl)Cl (centres undefined)	nt	14	61	-2	nt	nt	nt	nt	4.6	-16
COc1ccc(C(=O)Nc2ccc(N3CCCCC3)cc2)cc1Br	nt	-8	24	-3	nt	nt	nt	nt	4.9	28
COc1ccc(NS(=O)(=O)c2ccc(-n3nnc4ccccc43)c([N+](=O)[O-])c2)cc1	?	-38	12	-4	i	-14	-26	-2.4	1.5	-7
O=C(Nc1ccccc1)c1cc2ccccc2c(=O)s1	-4.9	nt	-15	-2	i	11	19	15	0.7	3
Nc1nc(Cn2nnc(-c3ccccc3F)n2)nc(N2CCOCC2)n1	nt	-2	2	-5	nt	nt	nt	nt	-4.3	3
CCOC(=O)c1ccc2c(c1)nc(C)n2CC	nt	2	1	-2	nt	nt	nt	nt	-1.9	-4
O=C(CCCC(=O)N(CC(=O)NC1CCCCC1)Cc1ccc2c(c1)OCO2)Nc1ccccn1	nt	nt	2	-11	nt	nt	nt	nt	1.2	6
C=CCSc1nnc(CNC(=O)c2ccccc2C)n1C(C)C	2.1	3	-13	-5	i	0	5	0.1	-1.6	-4
COc1ccc2[nH]c(C)c(C(=O)CN(C)C)c2c1	nt	-31	11	-1	nt	nt	nt	nt	?	-9
Cc1ccc(NC(=O)CC(=O)c2ccccc2)cc1C	4.2	0	-24	0	i	4	12	-0.7	-3.3	-3
CCN1C(=O)/C(=C/c2cnn(CC)c2C)SC1=S	0.1	nt	15	0	i	nt	nt	nt	-0.3	2
COc1ccc(Nc2nc(-c3ccccc3)nc3ccccc23)cc1	-7.1	2	20	nt	i	-40	-70	-2.0	-6.0	42
COc1cc(OC)cc(-n2nnnc2SCC(=O)NCc2ccc3c(c2)OCO3)c1	-44	-11	-20	-3	i	6	1	4.5	1.2	2
COc1ccccc1C(CNC(=O)c1ccco1)N1CCCC1 (centres undefined)	-2.4	-3	nt	-6	i	5	6	-0.2	nt	nt
CNCc1c(C)nn(-c2ccccc2)c1C	-0.5	28	14	-10	i	8	-1	-7.4	-0.8	-8
COc1ccc(N2CCN(C(=O)c3ccccc3NC(=O)C3=C(C)OCCS3)CC2)cc1	5.8	32	22	-6	i	9	0	0.0	7.0	4

Next entries follow:
SMILES	MLL AF4-AF9 inh	ALR inh	Calb FLC	Beta apoptosis	FGF22 binding	rRNA inh HTS	rRNA inh HTS OD600	rRNA inh HTS RFP	RanGTP-Impb inh	T cruzi repl
COc1ccc(CNC(=S)N/N=C/c2ccc(OC)c(OC)c2)cc1	nt	6	1	4	nt	nt	nt	nt	-2.3	-9
Cn1c(-c2ccccc2)cnc1SCC(N)=O	nt	-3	-3	-6	nt	nt	nt	nt	-2.7	11
Cc1cn(C(=O)c2ccccc2)c(=S)n1-c1ccc(Br)cc1	nt	2	23	2	nt	nt	nt	nt	2.4	14
Cc1ccc(NS(=O)(=O)c2c(C)[nH]c(C)c2C(=O)N2CCCCC2)cc1Cl	1.8	-5	4	-3	i	-5	-6	8.8	0.5	43
O=C(NCc1cccs1)c1ccncc1	nt	0	1	-2	nt	nt	nt	nt	1.1	-7
CCCN(CCC)C(=O)C1c2ccccc2Oc2ccccc21	nt	-5	3	2	nt	nt	nt	nt	-1.7	11
O=C(NCc1ccccc1)C(c1ccncc1)N(C(=O)c1csnn1)C1CC1 (centres undefined)	nt	-17	1	2	nt	nt	nt	nt	-3.4	-5
Cc1ccc(C(=O)Cn2nnc3c(sc4nc5c(c(-c6ccccc6)c43)CCC5)c2=O)cc1	nt	0	0	1	nt	nt	nt	nt	?	12
O=C1c2cccnc2C(Nc2ccc(S(=O)(=O)N3CCCCC3)cc2)N1Cc1ccccc1 (centres undefined)	nt	-2	-3	1	nt	nt	nt	nt	0.5	0
O=C(O)c1ccc(COc2c(F)c(F)cc(F)c2F)cc1	nt	-7	46	2	nt	nt	nt	nt	3.2	5
CCNC(=O)CC1C(=O)N(c2ccccc2)C(=O)N1Cc1ccc(OC)cc1 (centres undefined)	nt	-22	-5	-3	nt	nt	nt	nt	2.1	nt
CC(C)COc1ccc(CNC(=S)Nc2ccccc2)cc1Cl	-1.6	1	-20	9	i	-12	-10	1.4	-2.9	9
Cn1c(N)c(C(=O)CSc2nnc(-c3ccccc3F)n2N)c(=O)n(C)c1=O	2.9	-3	-4	2	i	8	-3	-5.6	?	-10
C=CCNc1nc2c(c(=O)n(C)c(=O)n2C)n1Cc1ccc(F)cc1	-1.1	-1	7	42	i	0	2	5.0	0.1	-7
CCCn1c(NC(=O)C23CC4CC(CC(O)(C4)C2)C3)nc2ccccc21	3.5	-20	11	5	i	-30	-36	3.9	-4.5	9
O=C(CNC(=S)N(CCCN1CCOCC1)Cc1cccs1)NCCN1CCOCC1	nt	-15	-3	-2	nt	nt	nt	nt	-1.0	-9
COc1cccc(-c2cc(C(F)(F)F)n3ncc(C(=O)NCC4CCCO4)c3n2)c1 (centres undefined)	nt	nt	-2	18	nt	nt	nt	nt	-4.0	45
O=C(CCNC(=O)c1ccccc1Cl)N/N=C\c1ccc(O)cc1	-14	nt	-2	-2	i	11	7	5.0	1.1	-9
CCCNC(=O)C(Cc1ccccc1)NS(=O)(=O)c1cccc2nsnc12 (centres undefined)	nt	-20	-11	-10	nt	nt	nt	nt	1.6	-9
O=C(CCNS(=O)(=O)c1ccc(Br)cc1)NCc1cccs1	-2.1	nt	1	2	i	-7	5	-0.4	-3.7	-8
Cc1nc(NC(=O)c2ccccc2)sc1-c1csc(NCc2ccccc2)n1	nt	-20	11	11	nt	nt	nt	nt	-1.5	-10
Cc1ccc(C(=O)OCC(=O)Nc2ccc3[nH]c(=O)[nH]c3c2)cc1S(=O)(=O)N1CCOCC1	1.4	-3	3	-1	i	3	2	-1.9	-0.9	-7
Cc1ccc(S(=O)(=O)Cc2cc(-c3ccc(Cl)cc3)no2)cc1	-1.8	-4	0	3	i	-3	2	0.1	2.4	-1

Compound activity as filed in PubChem BioAssay.
